Screening results from PubChem.
Mtb MbtI inh = inhibitors of Mycobacterium tuberculosis siderophore enzyme MbtI; P9WFX0; purified MbtI enzyme, fluorescence intensity read-out; inhibition, %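 (about 17 µg/mL by stock and volumes)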; actives 0.89% (n = 100,000); AID 493033;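 active = above 50% in both replicates, above 80% if mildly self-fluorescent; inactive = the rest, strongly fluorescent compounds included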;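 also: 0% = mean of negative and 100% = mean of positive controls; one replicate is shown; some compounds called inactive have numbers as strong as hits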
Mtb MenB inh = inhibitors of Mycobacterium tuberculosis MenB enzyme. AID 540299. MenB enzyme assay, absorbance read-out; some hits fall short of the stated cut. inhibition, %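 (about 12 µg/mL by stock and volumes)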. actives 0.43% (n = 100,000). P9WNP5;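 active = mean of two replicates above 30%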;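 also: 0% = no compound and 100% = wells with inactive enzyme; the first replicate is given; strong numbers were not always called active; inactives centre near -10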
Target sequence (P9WNP5 whole entry, looked up): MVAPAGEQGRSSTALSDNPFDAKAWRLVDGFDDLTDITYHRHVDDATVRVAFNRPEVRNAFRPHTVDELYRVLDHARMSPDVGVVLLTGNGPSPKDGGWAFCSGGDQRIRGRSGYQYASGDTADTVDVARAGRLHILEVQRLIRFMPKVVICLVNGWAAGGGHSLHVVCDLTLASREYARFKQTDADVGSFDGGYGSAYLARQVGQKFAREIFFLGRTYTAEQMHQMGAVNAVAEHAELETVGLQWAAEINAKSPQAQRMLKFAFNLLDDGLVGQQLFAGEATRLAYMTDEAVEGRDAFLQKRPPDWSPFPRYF
Polio RdRp inh = poliovirus RNA polymerase inhibition | P03300 | poliovirus polymerase elongation, fluorescence polarization; active compounds read low | % elongation, % (compound at 16.7 µg/mL) | actives 0.66% (n = 150,000); in the data active = % elongation below about 90%; also: some results filed as inactive read as strong as hits
Target sequence (P03300 1749-2209 limits assumed): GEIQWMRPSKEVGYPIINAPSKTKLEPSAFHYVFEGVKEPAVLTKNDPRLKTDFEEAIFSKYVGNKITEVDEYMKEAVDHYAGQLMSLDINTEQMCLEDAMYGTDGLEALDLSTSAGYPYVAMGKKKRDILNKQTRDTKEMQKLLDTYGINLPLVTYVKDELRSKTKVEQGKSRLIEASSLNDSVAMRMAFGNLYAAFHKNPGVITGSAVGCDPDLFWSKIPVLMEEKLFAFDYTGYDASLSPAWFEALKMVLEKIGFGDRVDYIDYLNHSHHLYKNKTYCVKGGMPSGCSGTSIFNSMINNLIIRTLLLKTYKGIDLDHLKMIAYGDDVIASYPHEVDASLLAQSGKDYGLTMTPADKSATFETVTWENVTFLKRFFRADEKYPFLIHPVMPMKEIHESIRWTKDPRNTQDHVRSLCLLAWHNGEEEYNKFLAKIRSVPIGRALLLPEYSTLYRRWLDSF
Polio RdRp inh intensity = second read-out of Polio RdRp inh, no call of its own (marks repeat the call); % elongation; measured here: total intensity read-out; formula for this scale not given here;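 total fluorescence in place of polarization; lower means less elongation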
Active calls of the source: *; · = no result given. Rows were taken by chance; overall some 1.7% were active at least once.

molecule | Mtb MbtI inh | Mtb MenB inh | Polio RdRp inh | Polio RdRp inh intensity
CC1CCCN(S(=O)(=O)c2ccccc2)C1 (configuration not stated) | · | -17 | 107 | 107
O=C(/C=C1/Sc2ccccc2N(Cc2ccc(F)cc2)C1=O)N1CCCC1 | 36 | -20 | 101 | 100
CCCC(=O)NCCc1nc2ccccc2n1CCC | 11 | -22 | 103 | 94
S=c1nc(C2CC2)[nH]c2ccccc12 | 92* | 12 | 98 | 96
CN(C)CCN(C)CC1=CCC2CC1C2(C)C (configuration not stated) | -7 | 4 | 101 | 102
Cc1ccc(CCNC(=O)c2cc3c(C)nccc3[nH]c2=O)cc1 | -7 | -15 | 103 | 105
CCOC(=O)c1c(N)n(-c2cccc(S(=O)(=O)N(CC)CC)c2)c2nc3ccccc3nc12 | 106 | -35 | 101 | 94
O=S(=O)(NCC(c1ccccc1)N1CCN(Cc2ccccc2)CC1)c1ccccc1 (configuration not stated) | -8 | 5 | 103 | 102
C(#Cc1ccccc1)CN1CCN(c2ccccn2)CC1 | -29 | · | 101 | 102
O=C(OCCCn1c(=O)[nH]c2ccccc21)c1ccc2c(c1)S(=O)(=O)c1ccccc1C2=O | -16 | -26 | 103 | 109

Additional results follow.
molecule | Mtb MbtI inh | Mtb MenB inh | Polio RdRp inh | Polio RdRp inh intensity
Cc1ccc2c(c1)c1c3n2CCN(S(C)(=O)=O)C3CCC1 (configuration not stated) | -16 | -26 | 101 | 102
COC(=O)C1=C(C)C(c2ccccc2OC)NC(=O)N1 (configuration not stated) | -17 | -18 | 100 | 104
CCN(CC1COc2ccccc2O1)C(=O)c1ccccc1Cl (configuration not stated) | -4 | -15 | 107 | 101
CC1CCC(NC(=O)COc2ccccc2C(N)=O)CC1 (configuration not stated) | -3 | -10 | 103 | 109
CCOc1ccc(C(=O)Nc2c(C)ccc3nsnc23)cc1Br | 3 | 5 | 101 | 106
COc1cccc(CNC(=O)Cn2ncn3cccc3c2=O)c1 | -3 | 5 | 105 | 104
CC(=O)Nc1cccc(/C(C)=N/N=C2/NC(=O)C(CC(=O)Nc3ccc(Cl)cc3)S2)c1 (configuration not stated) | -11 | -7 | 99 | 101
COc1ccc(C2CC(c3c(O)c4ccccc4oc3=O)=NCCN2Cc2cccc(C)c2)cc1 (configuration not stated) | -6 | 6 | 105 | 106
COc1ccc(C(=O)NC2CCCCCC2)c(OC)c1OC | -5 | -35 | 103 | 98
O=C(Cc1ccccc1)NCC(c1cccs1)N1CCOCC1 (configuration not stated) | -8 | · | 104 | 107

(next part)
molecule | Mtb MbtI inh | Mtb MenB inh | Polio RdRp inh | Polio RdRp inh intensity
O=C1NC(=NC2CCCC2)S/C1=C\c1ccc(-c2ccc(F)cc2)o1 | -22 | -57 | 105 | 103
O=C(/C=C/c1ccco1)OCc1nnc(-c2ccccc2)o1 | 7 | -9 | 108 | 115
CN1CC(=O)N(CN2CCN(S(=O)(=O)c3ccccc3C#N)CC2)C1=O | -10 | 15 | 103 | 109
CCCN(CCN1CCNCC1)C(O)C1C(=O)CC(C)(C)CC1=O (configuration not stated) | 3 | 10 | 98 | 101
FC(F)(F)c1ccc(Nc2ccc3c(c2)CCC3)nc1 | 93 | -20 | 101 | 106
Cc1c(-n2c(-c3ccccc3Br)n[nH]c2=S)c(=O)n(-c2ccccc2)n1C | 7 | -22 | 103 | 108
CC(=O)Nc1cccc(Oc2cc(C#N)c(C#N)cc2N2CCCCCC2)c1 | 1 | -28 | 100 | 102
O=C(COC(=O)C1CC(=O)N(Cc2ccccc2)C1)c1ccc(F)cc1 (configuration not stated) | -16 | 1 | 97 | 103
COC(=O)C(CC(C)C)NC(=O)Cn1cnc2ccccc2c1=O (configuration not stated) | 15 | -5 | 104 | 106
CCOc1ccccc1C(=O)NCCc1ccccc1 | · | -19 | 100 | 104

Continuation:
molecule | Mtb MbtI inh | Mtb MenB inh | Polio RdRp inh | Polio RdRp inh intensity
CCc1ccc(N2CCN(CCNC(=O)Nc3ccccc3)CC2)cc1 | -7 | -15 | 99 | 102
CCc1cc(Br)ccc1OCC(=O)O | -4 | -11 | 98 | 99
CN(C)S(=O)(=O)c1ccc2oc3nnc(SCC(=O)C(C)(C)C)n3c2c1 | -4 | -12 | 104 | 105
COc1cc(CNC(C)C)cc(OC)c1 | -15 | -17 | 100 | 102
Cc1nn2c(=O)/c(=C/C=C/c3ccccc3)sc2nc1=O | -12 | -6 | 102 | 98
CCCOc1ccc(/C=N/NC(=O)c2cccc(S(=O)(=O)N3CCOCC3)c2)c(O)c1 | -10 | -82 | 110 | 107
O=C(CCC(=O)c1cccs1)Nc1ccc(OCc2ccccc2)cc1 | -11 | · | 103 | 106
CCN1C[C@]2(COC)CC[C@H](OC)[C@]34C5C[C@@H]6[C@@H](OC)CC7(OCO[C@]7([C@H]13)[C@@H](O)C24)C5[C@H]6OC (some centres not stated) | -14 | 4 | 100 | 102
COc1ccccc1OCC(=O)N1CCN(c2ccccc2)CC1 | -4 | -14 | 105 | 101
Cc1noc(-c2ccccc2)c1NC(=O)Nc1ccc2sccc2c1 | -8 | -5 | 101 | 97

(list continues)
molecule | Mtb MbtI inh | Mtb MenB inh | Polio RdRp inh | Polio RdRp inh intensity
S=c1sc2c(s1)SCCS2 | -2 | -23 | 97 | 93
COc1ccc2cc3c(N)nn(C(=O)CCn4c(=S)oc5ccccc54)c3nc2c1 | 3 | -14 | 103 | 103
CC(=O)Nc1ccc(NS(C)(=O)=O)cc1 | -13 | -12 | 103 | 106
CCC(=O)NC(Nc1sc(C)c(CC)c1C#N)(C(F)(F)F)C(F)(F)F | · | -17 | 102 | 105
COC(=O)c1cc(S(=O)(=O)NCC2CN(Cc3ccccc3)CN(Cc3ccccc3)C2)oc1C | -8 | -7 | 104 | 110
O=C(c1ccc(Cl)c(S(=O)(=O)NCc2cccnc2)c1)N1CCN(c2ncccn2)CC1 | 13 | 20 | 99 | 104
Cc1ccc(Nc2cc(C)c3ccccc3n2)cc1 | 117 | 6 | 101 | 100
CC(C)(C)C(=O)Nc1ccccc1Cc1ccccc1 | -6 | 3 | 109 | 110
CN=CC1=C(O)C(C(=O)OC)C(C)(C)CC1=O (configuration not stated) | -5 | 1 | 103 | 101
CC(=O)N1CCOc2cc(S(=O)(=O)N3CCCc4ccccc43)ccc21 | -6 | -22 | 103 | 105

More results follow:
molecule | Mtb MbtI inh | Mtb MenB inh | Polio RdRp inh | Polio RdRp inh intensity
O=C(O)CC1CCCCO1 (configuration not stated) | -5 | -52 | 103 | 98
Cc1ccc2cc(C#N)c(=O)[nH]c2c1 | -98 | 5 | 103 | 103
COC(=O)c1ccc(COC(=O)C(c2ccccc2)c2ccccc2)o1 | -6 | -21 | 103 | 106
N#C/C(=C\c1ccc(N2CCOCC2)cc1)C(=O)NCc1ccccc1 | -11 | -168 | 110 | 132
CC(CCc1ccccc1)NC(=O)COc1cc(=O)n(C)c2ccccc12 (configuration not stated) | 33 | -10 | 102 | 99
O=C(O)c1cccc2[nH]c(=O)c(=O)[nH]c12 | 112 | -54 | 100 | 113
CC1(C)CC(=O)c2cnc(NCCc3ccccc3)nc2C1 | -4 | 1 | 105 | 105
NC(=O)c1ccccc1NC(=O)COC(=O)CC1CC2CCC1C2 (configuration not stated) | -4 | · | 103 | 108
CCCN1C2CCCC1CC(NC(=O)c1ccc(F)cc1)C2 (configuration not stated) | -8 | -62 | 107 | 100
CCOC(=O)Cc1nnc2c(Nc3cc(C)ccc3C)nc3nonc3n12 | 3 | -49 | 102 | 101

Quoted at random: 4 records from the list
molecule | Mtb MbtI inh | Mtb MenB inh | Polio RdRp inh | Polio RdRp inh intensity
N#C/C(=C\c1ccc(N2CCOCC2)cc1)C(=O)NCc1ccccc1 | -11 | -168 | 110 | 132
O=C(O)CC1CCCCO1 (configuration not stated) | -5 | -52 | 103 | 98
O=C(O)c1cccc2[nH]c(=O)c(=O)[nH]c12 | 112 | -54 | 100 | 113
CC(CCc1ccccc1)NC(=O)COc1cc(=O)n(C)c2ccccc12 (configuration not stated) | 33 | -10 | 102 | 99

Going on with the list:
molecule | Mtb MbtI inh | Mtb MenB inh | Polio RdRp inh | Polio RdRp inh intensity
CCn1cc(NC(=O)NCc2ccco2)c(=O)c2ccc(C)nc21 | 14 | 8 | 104 | 102
COc1ccc(C2c3ccsc3CCN2C(=O)NC(C)(C)C)cc1 (configuration not stated) | -4 | 12 | 103 | 114
Cc1nc(Cc2c(Cl)cccc2Cl)[nH]c(=O)c1Cl | -8 | 9 | 102 | 98
CCC(=O)OC1(c2cccc(C)c2)CC(C)N(C)CC1C (configuration not stated) | · | 4 | 104 | 107
O=C(Nc1ccc(S(=O)(=O)NCC2CCCO2)cc1)C1CC(=O)N(c2ccc(Cl)cc2)C1 (configuration not stated) | -1 | 7 | 98 | 101
Cc1ccc(C=Nc2ccccc2OCc2ccccc2)cc1C | · | 1 | 104 | 111
Cc1ccc(N(C)C(=O)CCS(=O)(=O)c2ccc3c(c2)n(C)c(=O)c(=O)n3C)cc1 | 4 | -3 | 103 | 103
CCn1cc(N)c(C(N)=O)n1 | 7 | -45 | 101 | 103
c1cc(CNC2CCCCC2)n(-c2nnc(N3CCCC3)s2)c1 | 15 | -15 | 102 | 101
COc1ccccc1CN(C)C(=S)NC1CC1 | 0 | -7 | 101 | 99

Next part
molecule | Mtb MbtI inh | Mtb MenB inh | Polio RdRp inh | Polio RdRp inh intensity
Cc1oc(C(=O)O)cc1CSCc1cc(C(=O)O)oc1C | -6 | -32 | 103 | 102
O=C(COC(=O)Cc1c[nH]c2ccccc12)Nc1ccccc1 | -28 | · | 103 | 114
O=c1cc(CN2CCN(S(=O)(=O)/C=C/c3ccccc3)CC2)nc2sccn12 | -3 | 8 | 105 | 115
CC1(C)CC(=O)C(C2C3=C(CC(C)(C)CC3=O)Oc3ccccc32)C(=O)C1 (configuration not stated) | -5 | · | 103 | 104
CC(=O)n1c2c(c3ccccc31)OC(N)=C(C#N)C2c1ccc(C(C)C)cc1 (configuration not stated) | · | -23 | 102 | 106
Cc1cc(/C(=N/O)C(C)(C)NO)ccc1Cl | 21 | -17 | 100 | 95
CNC(=O)c1cc2c(=O)n3ccccc3nc2nc1NC1CCCC1 | 89 | -130 | 102 | 102
COc1ccc(NC(=O)c2c(NC(=O)CSc3nnc(C4CC4)n3C)sc3c2CCCC3)cc1 | 36 | -46 | 111 | 108
O=C1Nc2ccccc2/C1=C/c1ccccc1 | 3 | -64 | 103 | 101
CCC(C)(C)C(=O)NC(c1ccccc1)c1ccccc1 | · | -16 | 106 | 110

(list continues)
molecule | Mtb MbtI inh | Mtb MenB inh | Polio RdRp inh | Polio RdRp inh intensity
CC(C)NC(=O)CSc1nc(-c2ccc(F)cc2)cc(C(F)(F)F)n1 | -3 | -2 | 103 | 107
COc1ccc(NC(=O)N2CCN(C/C=C/c3ccccc3)CC2)cc1 | -16 | -5 | 104 | 109
CCOC(=O)N1CCN(CC(=O)N2c3ccccc3Sc3ccccc32)CC1 | -8 | -57 | 105 | 107
CCN1CCN(CCCNC(=O)c2cc3sccc3n2Cc2ccc(F)cc2)CC1 | 4 | 1 | 101 | 101
O=C(Oc1cccc(Nc2ncnc3ccccc23)c1)c1cccs1 | 35 | -3 | 102 | 100
O=C1NC23CCCCC2C(c2ccccc2O3)C1C(=O)N1CCOCC1 (configuration not stated) | 4 | 8 | 101 | 102
O=C(CSc1nc(-c2ccc(F)cc2)[nH]c1-c1ccccc1)NC1CCCC1 | -33 | -4 | 102 | 106
C(=C\c1ccccc1)/CSc1ncnc2c1oc1ccccc12 | -6 | -2 | 102 | 107
Cc1ccccc1Nc1nc(N)nc(CSc2ncnc3sc4c(c23)CCC4)n1 | 1 | -17 | 97 | 120
C1COCCNCCOCCN1 | -9 | -21 | 88* | 86*

(cont.)
molecule | Mtb MbtI inh | Mtb MenB inh | Polio RdRp inh | Polio RdRp inh intensity
CCCn1c(=O)c2ccccc2n2c(SC(C)C(=O)Nc3ccc(Cl)cn3)nnc12 (configuration not stated) | 6 | -22 | · | ·
CCOc1ccc(OCC(=O)Oc2ccc3c(c2)OCO3)cc1 | 3 | -4 | 101 | 101
COC(=O)c1ccc(S(=O)(=O)N2CCCN(Cc3ccccc3)CC2)n1C | -1 | -16 | 103 | 107
Cc1ccc(-n2nc3c(n2)/C(=N/O)CCC3)cc1 | 115 | -6 | 98 | 101
O=C(c1cnn2c1NC(c1ccc(Br)cc1)CC2C(F)(F)F)N1CCCC1 (configuration not stated) | -15 | 2 | 102 | 102
O=C(c1cccnc1)N(C1CCCCC1)C1CCCCC1 | · | -4 | 106 | 110
COc1ccc(C(=O)Nc2ccc3c(c2)C(=O)N(C)C3=O)cc1OC | 6 | -8 | 100 | 101
O=C(Cc1ccccc1)Nc1cccc(S(=O)(=O)c2cccc(NC(=O)Cc3ccccc3)c2)c1 | -7 | -59 | 104 | 107
O=C(CSc1ncnc2ccccc12)NCc1ccco1 | 7 | 16 | 97 | 102
CC(=O)N1c2ccccc2C2(O)N=C(c3ccccc3)SC12 (configuration not stated) | -7 | -2 | 99 | 101
CCOC(=O)N1CCc2c(sc3c2C(=O)NC(c2ccc(OCC)cc2)N3)C1 (configuration not stated) | -2 | -5 | 102 | 104
O=C(Nc1ccc(Cl)cc1-c1nc2ccccc2s1)c1ccco1 | 54 | -5 | 102 | 103

Of the compounds above, 3 have a tert-butyl group.
molecule | Mtb MbtI inh | Mtb MenB inh | Polio RdRp inh | Polio RdRp inh intensity
CN(C)S(=O)(=O)c1ccc2oc3nnc(SCC(=O)C(C)(C)C)n3c2c1 | -4 | -12 | 104 | 105
CC(C)(C)C(=O)Nc1ccccc1Cc1ccccc1 | -6 | 3 | 109 | 110
COc1ccc(C2c3ccsc3CCN2C(=O)NC(C)(C)C)cc1 (configuration not stated) | -4 | 12 | 103 | 114
